Assay outcomes as filed in PubChem BioAssay.
GIRK2 activ = activators of human GIRK2 potassium channels; 0.05% of 63,000 active; HEK293-GIRK2 thallium flux, Thallos fluorescence; P48051; calls only for hits at 25 µM;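 active = among the strongest 0.2% of first-round signals and kept after retests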;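 note: first round at about 10 µM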
Target sequence (P48051 whole entry, looked up): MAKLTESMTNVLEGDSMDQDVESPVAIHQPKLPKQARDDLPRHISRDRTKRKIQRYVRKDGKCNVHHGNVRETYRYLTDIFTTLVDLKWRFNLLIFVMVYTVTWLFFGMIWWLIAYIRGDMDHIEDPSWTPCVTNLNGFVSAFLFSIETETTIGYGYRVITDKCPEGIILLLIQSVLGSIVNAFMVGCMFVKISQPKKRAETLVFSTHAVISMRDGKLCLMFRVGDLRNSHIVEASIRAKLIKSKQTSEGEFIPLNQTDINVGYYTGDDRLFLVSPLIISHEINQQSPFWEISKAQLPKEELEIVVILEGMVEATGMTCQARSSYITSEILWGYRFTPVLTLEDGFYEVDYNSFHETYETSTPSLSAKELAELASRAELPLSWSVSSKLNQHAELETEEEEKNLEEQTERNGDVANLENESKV
Calls only; i = inactive. These rows are one share of the data, so the mix of outcomes need not match the whole.

SMILES	GIRK2 activ
O=C(Nc1ccc(F)cc1)OC1CCCC(NC(=O)c2c(F)cccc2F)C1 (configuration not stated)	i
Cc1ccc(N2CC(c3nc4ccccc4n3C(C)C)CC2=O)cc1 (configuration not stated)	i
O=C(Nc1ccccc1C(F)(F)F)N(Cc1ccoc1)Cc1cccs1	i
O=C(NCCOc1ccccc1)NCC1CCN(C(=O)c2cc3ccccc3o2)CC1	i
Nc1c(-c2cc(Br)ccc2O)nc2ccccn12	i
Cc1nn(C)c(C)c1S(=O)(=O)N1CCC2(CC1)OCCS2	i
COc1cc(NC(=O)c2csc(C)n2)ccc1N1CCCC1=O	i
CC1CCCN(c2nc3c(c(=O)n(C)c(=O)n3C)n2CC(O)COc2ccc(Cl)cc2)C1 (configuration not stated)	i
O=C(Nc1cnoc1)C12CC3CC(CC(C3)C1)C2	i
Cc1ccc2nc(NC(=O)CN3CCN(CC(=O)c4cccs4)CC3)sc2c1	i
COc1ccc(CNC(=O)N2CCN(Cc3nnnn3-c3ccccc3)CC2)cc1OC	i
COc1ccccc1CNC(=O)Cn1cnc2c([nH]c3ccc(Br)cc32)c1=O	i
COc1ccc2cc(C(=O)N3CCc4nc(NC(=O)c5ccoc5)sc4C3)[nH]c2c1	i
COc1ccc(-c2csc3c(=O)n(CC(=O)NCc4cccs4)cnc23)cc1	i
O=C(Nc1ccc(SCC(=O)N2CCN(c3ccccc3)CC2)nn1)c1ccccc1	i
CCOc1ccc(-c2noc(Cn3c(=O)n(C(C)CC)c(=O)c4ccccc43)n2)cc1 (configuration not stated)	i
COc1ccc(CNC(=O)Cn2ccn3nc(-c4ccc(Cl)cc4)cc3c2=O)cc1OC	i
O=S(=O)(/C=C/c1ccccc1)N1CCC2(CC1)OCCS2	i
Cc1cccc(NC(=O)CSc2nc(N3CCCCC3)nc3ccccc23)c1	i
COC(=O)Cn1c(=O)c2c(nc3n(-c4cccc(C)c4)c(C)cn23)n(C)c1=O	i
O=c1c(S(=O)(=O)N2CCCC2)cccn1Cc1c(F)cccc1Cl	i
O=S(=O)(c1ccc2c(c1)OCCO2)N1CCN(c2cc(-c3ccccc3)ncn2)CC1	i
COC(=O)c1cc(C)sc1NC(=O)CC1SC(N2CCOCC2)=NC1=O (configuration not stated)	i
O=C(/C=C/c1ccccc1Cl)N1CCCC(c2nnc(C(F)(F)F)o2)C1 (configuration not stated)	i
COc1ccc(N2CC(C(=O)Nc3ccc(CC(=O)NCc4cccs4)cc3)CC2=O)cc1 (configuration not stated)	i
CS(=O)(=O)N1CCc2nc(NC(=O)c3nc4ccccc4s3)sc2C1	i
COc1ccccc1CNC(=O)c1nnn(-c2nc(-c3ccccc3)cs2)c1C	i
OCCC/C=C/c1ccccc1	i
CCOc1ccc2nc(N(Cc3ccncc3)C(=O)c3ccc(S(=O)(=O)C(C)C)cc3)sc2c1	i
COC(=O)c1cc(OC)cc(OC)c1C(=O)c1c(O)cc(C)cc1O	i
O=C(CCn1cnc2c([nH]c3ccc(F)cc32)c1=O)NCc1ccc(Br)cc1	i
O=C(NCC1CCN(S(=O)(=O)c2cccnc2)CC1)c1c(F)cccc1Cl	i
C=C(C)Cn1c(=O)c2c(nc3n2CCCN3c2ccc(OC)cc2OC)n(C)c1=O	i
COC(=O)c1ccccc1NC(=O)CSc1nc2ccccc2n2c(C(C)C)nnc12	i
COc1ccc(CC(C)(O)CNC(=O)C(=O)Nc2ccc(C(F)(F)F)cc2)cc1 (configuration not stated)	i
COCCn1c(=O)c2c(nc3n(-c4cc(C)ccc4C)c(C)cn23)n(C)c1=O	i
COc1cc(NC(=O)c2cnccn2)ccc1N1CCCC1=O	i
CC1(C)CC(NC(=O)c2ccsc2)CC(C)(C)N1	i
CCN1CCN(c2nc3c(c(=O)[nH]c(=O)n3C)n2CC(O)COc2ccc(OC)cc2)CC1 (configuration not stated)	i
Cc1nc2ccccn2c1C(=O)N(Cc1ccoc1)Cc1cccs1	i
CCc1nc2sc(C(c3ccccc3F)N3CCCC3)c(O)n2n1 (configuration not stated)	i
CC(C)(C)NC(=O)Nc1ccc2c(c1)CCC(=O)N2Cc1ccccc1	i
O=C(c1csc(-c2ccccc2)n1)N1CCC(Oc2nc3ccc(F)cc3s2)CC1	i
O=C(CSc1nccn1-c1ccc(C(=O)NCc2ccco2)cc1)NCc1ccccc1	i
CCOC(=O)NC(NC(=O)OCC)c1ccc(OC)c(OCC(C)C)c1	i
Cc1nnc(C2CCN(S(=O)(=O)c3c(C)noc3C)CC2)s1	i
COc1cccc(/C=C2\Oc3cc(OC(C)C(=O)O)ccc3C2=O)c1 (configuration not stated)	i
Cn1nc(-c2ccccc2)cc1C(=O)NCC1CCS(=O)(=O)C1 (configuration not stated)	i
COc1ccc(OC)c(C(O)CN2CCN(c3ccccc3Cl)CC2)c1 (configuration not stated)	i
CCOC(=O)c1cc2cc(OC)c(OC)cc2c(Cc2ccc(OC)c(OC)c2)n1	i
O=C(NCC#CCOc1cccc(C(F)(F)F)c1)c1ccno1	i
O=C(Nc1nc2c(s1)CN(S(=O)(=O)C1CC1)CC2)c1ccc(=O)[nH]c1	i
COc1ccc(C2(CNC(=O)c3cc(-c4ccco4)on3)CCCC2)cc1	i
COc1ccc(CCNC(=O)NCC2CCN(C(=O)c3ccoc3)CC2)cc1	i
Cc1ccc(-c2ccc3nnc(CCC(=O)NCc4ccc(C(C)C)cc4)n3n2)cc1C	i
Cc1ccc(-n2nnc(C(=O)N3CCNC(=O)C3)n2)cc1	i

CCC(C(=O)NCC(O)c1ccc2c(c1)CCO2)c1ccccc1 (configuration not stated)
  GIRK2 activ = i
O=C(CSc1nccc(N2CCCC2)n1)Nc1ccc(F)c(Cl)c1
  GIRK2 activ = i
CCC(=O)Nc1ccc(S(=O)(=O)NCCCc2ccc(N(C)C)cc2)cc1
  GIRK2 activ = i
Cc1ccc(C)c(S(=O)(=O)Nc2ccc(C(=O)N3CC(C)OC(C)C3)cc2)c1 (configuration not stated)
  GIRK2 activ = i
COc1ccc(Cl)cc1S(=O)(=O)NCc1ccncc1
  GIRK2 activ = i
O=C(NCC1CCN(C(=O)c2ccoc2)CC1)Nc1cccc(C(F)(F)F)c1
  GIRK2 activ = i
CCOC(=O)Cn1c(=O)c2c(nc(-n3nc(CC)cc3CC)n2C(C)C)n(C)c1=O
  GIRK2 activ = i
O=C(Cn1nc2nc(Nc3ccc(F)cc3)ccn2c1=O)N1CCCc2ccccc21
  GIRK2 activ = i
CCCc1nc(C)c2c(=O)[nH]c(-c3cc(S(=O)(=O)N4CCN(CC)CC4)ccc3OCC)nn12
  GIRK2 activ = i
COc1ccc(CNC(=O)c2ccc(-n3nc(C)c(C)c3C)nc2)cc1OC
  GIRK2 activ = i
COc1ccc(CCNC(=O)CCc2csc(NC(=O)c3cccs3)n2)cc1OC
  GIRK2 activ = i
COc1ccc2c(CN3CC(C)OC(C)C3)cc(=O)oc2c1 (configuration not stated)
  GIRK2 activ = i
CS(=O)(=O)c1ccc(Nc2nc(CC(=O)NCc3ccc(F)cc3)cs2)cc1
  GIRK2 activ = i
COc1cccc(CNC(=O)C(=O)NCCC2CCCCN2S(=O)(=O)c2cc(C)ccc2C)c1 (configuration not stated)
  GIRK2 activ = i
COc1cccc(-n2c(=O)[nH]c3c(C(N)=O)nc(-c4cc(OC)ccc4OC)nc32)c1
  GIRK2 activ = i
Cn1c(=O)c([N+](=O)[O-])c(NCC2CCCO2)c2ccccc21 (configuration not stated)
  GIRK2 activ = i
O=C(O)C1(NS(=O)(=O)c2c(Cl)cccc2Cl)CCCCC1
  GIRK2 activ = i
Cc1cc(F)ccc1S(=O)(=O)NCC1(CO)CC1
  GIRK2 activ = i
O=C(NC1CC1)C1CCN(c2nc3ccsc3c(=O)n2Cc2ccc(F)cc2)CC1
  GIRK2 activ = i
Cc1ccc(Cn2nnc3c(=O)n(Cc4nc(-c5ccc(C)cc5)no4)cnc32)cc1
  GIRK2 activ = i
COc1ccccc1-c1nc(Cn2cccc(-c3nc(C4CC4)no3)c2=O)no1
  GIRK2 activ = i
COc1ccc(C(=O)Oc2ccc3c(=O)c(-c4ccc(OC)c(OC)c4)c(C)oc3c2)cc1OC
  GIRK2 activ = i
Cc1c(-c2nc(-c3cccc(Cl)c3)no2)oc2ccc(S(=O)(=O)N3CCOCC3)cc12
  GIRK2 activ = i
COc1cc(Br)cc2cc(C(=O)OC(C)C(=O)c3ccc(F)cc3)c(=O)oc12 (configuration not stated)
  GIRK2 activ = i
O=C(c1ccc2c(c1)OCO2)N1CCC(COCc2ccc(F)cc2)CC1
  GIRK2 activ = i

COc1ccc(N2CCCn3c2nc2c3c(=O)n(Cc3ccc(Br)cc3)c(=O)n2C)cc1
  GIRK2 activ = i
Cc1nc(-c2ccccc2Cl)sc1CNS(=O)(=O)CCOc1ccc(F)cc1
  GIRK2 activ = i
COc1cc2c(cc1OC)CN(C(=O)CSc1n[nH]c(N)n1)CC2
  GIRK2 activ = i
COc1ccccc1C(=O)N1CCc2cc(S(=O)(=O)NC3CCCC3)ccc21
  GIRK2 activ = i
COCCNc1sc(S(=O)(=O)c2ccccc2)nc1S(=O)(=O)c1ccc(C)cc1
  GIRK2 activ = i
O=C(Cn1cnc2c([nH]c3ccccc32)c1=O)NCc1cccc(C(F)(F)F)c1
  GIRK2 activ = i
CN1CCN(CCc2cccc(C(=O)c3cnn(-c4ccc(F)cc4)c3N)c2)CC1
  GIRK2 activ = i
CC(C)N(CC#CCNS(=O)(=O)c1ccc(Cl)cc1)C(C)C
  GIRK2 activ = i
O=C(c1cc(=O)c2ccccc2o1)N1CCC(Cn2cccn2)CC1
  GIRK2 activ = i
N#C/C(=C\N1CCC(C(N)=O)CC1)S(=O)(=O)c1ccc(Cl)cc1
  GIRK2 activ = i
Cc1nc(C(=O)N2CCOCC2CN(C)C)cs1 (configuration not stated)
  GIRK2 activ = i
C=CCn1c(C2CC(=O)N(CCc3ccccc3)C2)nc2ccccc21 (configuration not stated)
  GIRK2 activ = i
COc1ccc(C(=O)/C=C/c2ccccc2F)c(OC)c1
  GIRK2 activ = i
O=C(Cc1cccs1)NCCCn1ncccc1=O
  GIRK2 activ = i
Cc1cnc(NC(=O)c2coc(NC(=O)c3ccsc3)n2)s1
  GIRK2 activ = i
COc1ccc(CC(C)(O)CNC(=O)Nc2ccccc2OC)cc1 (configuration not stated)
  GIRK2 activ = i
COc1ccccc1Oc1coc2c3c(ccc2c1=O)OCN(Cc1cccs1)C3
  GIRK2 activ = i
Cc1ccc(CNC(=O)CSc2nc3c(-c4ccccc4)c[nH]c3c(=O)n2C2CC2)cc1
  GIRK2 activ = i
Cc1ccc(S(=O)(=O)N2CCN(c3c(C)cccc3C)CC2)cc1
  GIRK2 activ = i
Cc1ccc(N2CCCS2(=O)=O)cc1NC(=O)Cc1c(C)noc1C
  GIRK2 activ = i
O=S(=O)(/C=C/c1ccccc1)N1CCOC2(CCOCC2)C1
  GIRK2 activ = i
OC(CN1CCN(Cc2ccccn2)CC1)c1cccs1 (configuration not stated)
  GIRK2 activ = i
NC(=O)OCC(COC(N)=O)c1ccccc1
  GIRK2 activ = i
O=C(NCCc1csc2nc(-c3ccccc3F)nn12)NC1CCCCCC1
  GIRK2 activ = i
CC(=O)NCCc1nc2ccccc2n1CCCCOc1ccc(C)cc1
  GIRK2 activ = i

Cc1cc2ncn(CC3CCN(CC(=O)Nc4nncs4)CC3)c2cc1C
  GIRK2 activ = i
COC(=O)c1ccc2c(=O)n(Cc3ccc(OC)cc3)c(N3CCN(Cc4ccccc4)CC3)nc2c1
  GIRK2 activ = i
CCc1ccc(N2CC(C)Cn3c2nc2c3c(=O)[nH]c(=O)n2C)cc1 (configuration not stated)
  GIRK2 activ = i
O=C(NCc1cnn2ccccc12)c1cncc(Br)c1
  GIRK2 activ = i
O=C(c1ccc2nsnc2c1)N1CCN(CC(O)c2cccs2)CC1 (configuration not stated)
  GIRK2 activ = i
Cc1ccc(-n2cc(C(=O)N3CCC(NC(=O)Cc4cccs4)CC3)nn2)cc1C
  GIRK2 activ = i
O=C(Nc1ccon1)c1csc2nc(-c3ccc(F)cc3)cn12
  GIRK2 activ = i
CCN1CCc2c(OCC(=O)N3N=C(c4cccs4)CC3c3ccc(F)cc3)cccc2C1=O (configuration not stated)
  GIRK2 activ = i
COc1ccc(OC)c(-c2ccc(N3CCN(S(=O)(=O)c4cccs4)CC3)nn2)c1
  GIRK2 activ = i
COc1ccccc1N1CCN(CCNC(=O)c2ccc(Cl)c(Cl)c2)CC1
  GIRK2 activ = i
CC(=O)N1CCc2c(sc(NC(=O)c3ccccc3F)c2-c2nc3ccccc3s2)C1
  GIRK2 activ = i
CCC(C(=O)NCCc1ccoc1)c1ccccc1 (configuration not stated)
  GIRK2 activ = i
COCCSc1nc(C)cc(C(F)(F)F)c1C#N
  GIRK2 activ = i
COc1ccccc1NC(=O)Nc1ccccc1NC(=O)c1ccccc1C
  GIRK2 activ = i
COc1ccc(NC(=O)Cn2nc3cc(C)nc(Nc4ccc(F)cc4)n3c2=O)cc1F
  GIRK2 activ = i
O=C(Cc1ccc(Br)cc1)Nc1ccccc1-c1ccc(=O)[nH]n1
  GIRK2 activ = i
CCOc1cc(NC(=O)c2cc3ccccc3o2)ncn1
  GIRK2 activ = i
COc1ccc(CNC(=O)Cn2nc3c(c2NC(=O)COc2ccc(Cl)cc2)CSC3)cc1
  GIRK2 activ = i
C#CCSc1nnc(-c2ccc(Br)cc2)n1CC=C
  GIRK2 activ = i
O=C(Nc1nnc(-c2ccc(Br)s2)o1)c1cccc(F)c1
  GIRK2 activ = i
CC(Oc1ccccc1)C(=O)Nc1ccc(S(=O)(=O)N2CCN(c3cnccn3)CC2)cc1 (configuration not stated)
  GIRK2 activ = i
COc1ccc(S(=O)(=O)Nc2nc(CC(=O)N3CCC(C(N)=O)CC3)cs2)cc1
  GIRK2 activ = i
